Methyltransferases: Primary Screen for Target Class Profiling of Small Molecule Inhibitors of Methyltransferases. calls only at 40 µM. actives 3.9% (n = 25,000). purified enzyme, MTase-Glo SAH luminescence; stronger effect = lower value. AID 1745853, 2022; active = -50% or lower on at least one of six enzymes; inconclusive = the cases between; inactive = as a rule above -30% on all six;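 further: enzymes were COMT GAMT GNMT HNMT NNMT and PNMT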
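Each enzyme was assayed with SAM and its substrate. SAH formation detected by MTase-Glo luminescence; single-point 40 uM screen[…].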
Calls only; i = inactive; ? = inconclusive; + = active, no number. On the % scale 0 is the no-effect control and ±100 the full control effect.

SMILES	Methyltransferases
CC12CCC(OC3OC(CO)C(O)C(OC4OC(CO)C(O)C(O)C4O)C3O)CC1CCC1C2CCC2(C)/C(=C3/COC(=O)C3)CCC12O (stereo unspecified)	i
CCn1c(=O)n(CC)c2cc(S(=O)(=O)N3CCC(Cc4ccccc4)CC3)ccc21	i
COCc1nn(CC(=O)NC(C)Cc2cc(C)[nH]n2)c(=O)n1-c1ccccc1 (stereo unspecified)	i
CC(C)CCC1(O)C(=O)C(C)(C)C(O[C@@H]2O[C@H](CO)[C@@H](O)[C@H](O)[C@H]2O)C(C)(C)C1O (stereo partly specified)	+
Cc1ccc(CNC(=O)C2(C)Cn3nc(C(=O)NCCN4CCCC4)cc3C(=O)N2C)cc1 (stereo unspecified)	i
Cc1nnsc1C(=O)N[C@H]1CCN(C(=O)c2ccco2)[C@H](C(=O)N[C@H](Cc2c[nH]c3ccccc23)C(N)=O)C1	i
COc1ncccc1-c1nc(-c2c(C)noc2C)cc2cc(CN(C)C)oc12	i
NCC(=O)N[C@H]1CN(c2nccc(C(F)(F)F)n2)C[C@@H]1C1CC1	i
CC(=O)N1CCN(Cc2ccccc2-c2cccnc2)CC1	i
O=C1COCC2(CN1)CN(C(=O)c1ccc(Cl)cc1)C2	i
COc1ccc(-c2nc3cnccn3c2NCCC(=O)N2CCCC(C)C2)cc1 (stereo unspecified)	i
COCc1cc(=O)n(CC(=O)NCc2ccc(OC)cc2)c(N2CCOCC2)n1	i
Cc1cccc(-c2nnn3c2nc(NCc2ccccc2)c2ccccc23)c1	i
CC(C)n1c(=O)c2ccc(C(=O)NC3CCCCC3)cc2n2c(=O)n(Cc3ccccc3)nc12	i
O=C(/C=C/c1ccc(O)cc1)OC[C@]12O[C@H]1[C@@H](O)[C@@H]1C=CO[C@@H](O[C@@H]3O[C@H](CO)[C@@H](O)[C@H](O)[C@H]3O)[C@@H]12	i
COc1ccccc1-n1c(SCC(=O)Nc2nc3ccc(C)cc3s2)nc2c(c1=O)SCC2	i
Cc1ccc(CCC(=O)N2C[C@@H](CN3CCOCC3)[C@@H](CO)C2)cc1	i
C[S+](=O)([O-])N1CCC2(C1)N=C(c1ccccn1)C(=O)N2 (stereo unspecified)	i
CN(Cc1cccn1C)C(=O)c1ccccc1	i
Cc1cccc(CN2C(=O)c3cc4ccccc4n3CC2(C)C(=O)NCCC(C)C)c1 (stereo unspecified)	i
C=CC(=O)Nc1ccc2ncnc(Nc3ccc(OCc4cccc(F)c4)c(Cl)c3)c2c1	i
CN1CCC(N2CC3(CCC2=O)CCN(C(=O)c2ccccn2)CC3)C1 (stereo unspecified)	i
CC(C)c1cc2c(c(O)c1O[C@@H]1O[C@H](CO)[C@@H](O)[C@H](O)[C@H]1O)CC1(O)CCC(O)C(C)(C)C1CC2 (stereo partly specified)	i
Cc1noc(C)c1S(=O)(=O)N1CCCOCCNC(=O)[C@@H]2CCC[C@@H]21	i
CC1(C(=O)NC2CCCCCC2)Cn2c(cc3occc32)C(=O)N1c1ccc(Cl)cc1 (stereo unspecified)	i
Cc1noc(C2CCCCN2C(=O)c2ccoc2)n1 (stereo unspecified)	i
CCCn1c(=O)c2ccc(Cl)cc2n2c(=O)n(CC(=O)NCc3ccccc3)nc12	i
CCCCCCCCn1cc(CC(N)=O)c2cc(-c3cccc(C)c3)ccc21	?
CC1(C)CCC2=C(O1)c1ccccc1C(=O)C2=O	+
O=C(c1ccc(F)cc1)N1CCCC(C(=O)N2CCCC2c2nc3ccncc3[nH]2)C1 (stereo unspecified)	i
CN1CCN(C(=O)c2cc3cc(Cl)ccc3[nH]2)CC1	i
COc1ccc(-c2ccc3ccccc3n2)c(OC)c1OC	i
CC(=O)O[C@@H]1C(=O)O[C@@H]2[C@H]1OC(=O)[C@@H]2OC(C)=O	i
CCOc1ccc(N2C(=O)Cn3cccc3C2C(=O)NC2CCCCC2C)cc1 (stereo unspecified)	i
CCCCN1C(=O)c2cc(C(=O)Nc3ccccc3CC)nn2CC1(C)C(=O)NC1CCCC1 (stereo unspecified)	i
COC(=O)c1ncn2c1C(=O)N(c1cc(C)ccc1C)C(C)(C(=O)NCc1ccccc1)C2 (stereo unspecified)	i
CN[C@@H](C)c1nc(C2CCOCC2)nn1CC1CCCCC1	i
CN1C(=O)c2cc(C(=O)NCc3ccccc3)nn2CC1(C)C(=O)NCc1ccc(F)cc1 (stereo unspecified)	i
C=C1CN(Cc2ccc(C(=O)Nc3ccccc3N)cc2)C(=O)c2ccccc21	?
CCCCNc1nc2c(S(=O)(=O)c3cc(C)ccc3C)nnn2c2ccccc12	i
O=C(c1ccc(Nc2nn3c(=O)c4ccccc4nc3s2)cc1)N1CCN(c2ccccn2)CC1	i
O=C(NC1CCN(Cc2ccccc2)CC1)C1CCCN(c2cnc3nccnc3c2)C1 (stereo unspecified)	i
CC1(C)CC[C@]2(C(=O)O)CC[C@]3(C)C(=CCC4[C@@]5(C)C(=O)C[C@H](O)[C@@](C)(CO)C5CC[C@]43C)[C@@H]2C1 (stereo partly specified)	i
CC(C)C1=NOC2(CCN(C(=O)c3ccccc3F)CC2)C1	i
CC(C)CNC(=O)c1ccc2c(=O)n(C)c3nn(CC(=O)NCc4ccc(Cl)cc4)c(=O)n3c2c1	i
Clc1ccc(C(c2ccc(Cl)cc2)n2cc[n+](CC(OCc3ccc(Cl)cc3Cl)c3ccc(Cl)cc3Cl)c2)cc1 (stereo unspecified)	+
CC(=O)Nc1c2n(c3ccc(F)cc13)CC(C)(C(=O)NC1CCCC1)N(c1ccc(C)cc1)C2=O (stereo unspecified)	i
CCCn1c(=O)c2ccc(C(=O)NC3CCCC3)cc2n2c(=O)n(C)nc12	i
CC(C)OCCCNC(=O)c1ccc2c(=O)nc3c(-c4ccccc4)n[nH]n3c2c1	i
CCCC1c2ccc(C)n2CCN1C(=O)Nc1cccc(C)c1C (stereo unspecified)	i
C=CCn1c(=O)c2ccc(C(=O)NC(C)C)cc2n2c(=O)n(CC(=O)NC(C)CC)nc12 (stereo unspecified)	i
COc1ccccc1CNC(=O)CNC(=O)C1(C)Cn2c(cc3ccccc32)C(=O)N1C (stereo unspecified)	i
COc1ccc(C[C@H](N)C(=O)N[C@H]2[C@@H](O)[C@H](n3cnc4c(N(C)C)ncnc43)O[C@@H]2CO)cc1	?
CCCOc1ccccc1C(C)Nc1nc(-c2cccnc2)nc2c1CNC2 (stereo unspecified)	?
CN1CC(=O)N(C2CCNCC2)Cc2c(NCCCO)ncnc21	i
CS(=O)(=O)c1ccc(S(=O)(=O)N2CCC3(CCCNC3)C2)cc1 (stereo unspecified)	i
CN(Cc1ccc2nccnc2c1)C(=O)c1cc(COc2ccc(F)cc2F)on1	?
CCc1ccc(NC(=O)CSc2nnc3n(Cc4ccccc4)c(=O)c4ccccc4n23)cc1	i
CNc1nc(Cc2ccccc2)nc2c1CCNC[C@@H]2C	i
CCc1ccc(-c2nc(CSCC(=O)NCCc3ccccc3)c(C)o2)cc1	i

The list goes on:
SMILES	Methyltransferases
O=C1COC[C@H]([C@H](O)c2ccc(NC(=O)C3CCCC3)cc2)N1	i
CC1(C)C=CN2C(=O)C3=CCCN3C(=O)[C@@H]2C[C@@]12Nc1ccccc1C2=O	i
Cc1cc(Cl)ccc1NS(=O)(=O)c1ccc2[nH]c3c(c2c1)CCCC3	i
CC(C)CNC(=O)c1ccc2c(=O)n(C)c3nn(CC(=O)NCc4ccccc4)c(=O)n3c2c1	i
c1c(-c2nc(C3CCOC3)no2)sc2c1CCCC2 (stereo unspecified)	i
CN(C)C(=O)Oc1ccc[n+](C)c1	i
CC1(C)C[C@H](O)C[C@@]2(C)[C@H]1[C@H](O)C=C1COC(=O)[C@@]12O	i
CCOC(=O)C1CCN(c2nc3c(S(=O)(=O)c4ccccc4)nnn3c3ccc(Cl)cc23)CC1	i
COCCc1noc(CC2CCOC3(CCN(C(=O)C4CCOCC4)CC3)C2)n1 (stereo unspecified)	i
NS(=O)(=O)c1cc(Cl)c(Cl)c(S(N)(=O)=O)c1	i
CC(=O)N1CCC(c2nnc3n2C(C(=O)Nc2ccc(C)cc2)CC3)CC1 (stereo unspecified)	i
CC(C)CCNC(=O)C1(C)Cn2nc(C(=O)N3CCN(C)CC3)cc2C(=O)N1C (stereo unspecified)	i
COC(=O)N1CCCCC1C(=O)N1CCC2(CC1)c1nc[nH]c1CCN2C (stereo unspecified)	i
Cc1ccc(CN2C(=O)c3cc4occc4n3CC2(C)C(=O)NC2CCCCC2C)cc1 (stereo unspecified)	i
CCOC(=O)C(Cc1c[nH]c2ccccc12)NC(=O)c1ccccc1Cl (stereo unspecified)	i
Cn1nc(C2CC2)cc1NC(=O)C(C)(C)C	i
CC(C)NC(=O)c1onc(-c2ccc(Cl)cc2)c1[C@H](C)O	i
Cc1cccc(N2CCN(CCCNC(=O)CCc3nnc4n(CC(C)C)c(=O)c5ccccc5n34)CC2C)c1 (stereo unspecified)	i
O=C(c1csc(-c2cccs2)n1)N1CCC2(CCCO2)CC1	i
COc1ccccc1-c1cc(Nc2cccc(CS(N)(=O)=O)c2)ncn1	i

Entries above with fluorine, in the order listed:
SMILES	Methyltransferases
NCC(=O)N[C@H]1CN(c2nccc(C(F)(F)F)n2)C[C@@H]1C1CC1	i
C=CC(=O)Nc1ccc2ncnc(Nc3ccc(OCc4cccc(F)c4)c(Cl)c3)c2c1	i
O=C(c1ccc(F)cc1)N1CCCC(C(=O)N2CCCC2c2nc3ccncc3[nH]2)C1 (stereo unspecified)	i
CN1C(=O)c2cc(C(=O)NCc3ccccc3)nn2CC1(C)C(=O)NCc1ccc(F)cc1 (stereo unspecified)	i
CC(C)C1=NOC2(CCN(C(=O)c3ccccc3F)CC2)C1	i
CC(=O)Nc1c2n(c3ccc(F)cc13)CC(C)(C(=O)NC1CCCC1)N(c1ccc(C)cc1)C2=O (stereo unspecified)	i
CN(Cc1ccc2nccnc2c1)C(=O)c1cc(COc2ccc(F)cc2F)on1	?

(more compounds)
SMILES	Methyltransferases
CC1=C2C3OC(=O)C(C)C3(O)CCC2(C)CCC1=O (stereo unspecified)	i
O=C(CCCc1cccs1)N1CCCC(O)(CN2CCCC2)C1 (stereo unspecified)	i
C/C=C(\C)C(=O)OC[C@H]1O[C@H](O[C@H]2O[C@H](CO)[C@@H](O)[C@H](O)[C@H]2O[C@@H]2O[C@H](CO)[C@@H](O)[C@H](O)[C@H]2O)[C@H](O[C@@H]2O[C@H](CO)[C@@H](O)[C@H](O)[C@H]2O)[C@@H](O)[C@@H]1O	i
CN[C@@H]1[C@@H](O)[C@@H](O[C@@H]2[C@@H](O)[C@H](O[C@H]3O[C@@H]([C@@H](C)NC)CC[C@H]3N)[C@@H](N)C[C@H]2N)OC[C@]1(C)O	?
COc1ccc2cc3n(c2c1)CC(C)(C(=O)NC1CCCCC1)N(Cc1ccccc1Cl)C3=O (stereo unspecified)	i
COc1ccccc1CN1C(=O)c2cc3ccccc3n2CC1(C)C(=O)NCCCOC(C)C (stereo unspecified)	i
Cc1ccc(-c2n[nH]n3c2nc(=O)c2ccc(C(=O)NCc4ccc(Cl)cc4)cc23)cc1	i
O=S(=O)(c1ccccc1Cl)N1CCC(c2noc(COCc3ccccc3)n2)CC1	i
CC(C)c1ccc(CNC(=O)c2ccc3c(=O)nc4c(-c5cccc(F)c5)n[nH]n4c3c2)cc1	i
CC1(C)[C@H]2C[C@H](C/C=C\CCCC(=O)O)[C@@H](NC(=O)c3csc4ccc(O)cc34)[C@@H]1C2	?
CN1C(=O)c2cc(C(=O)NCCc3ccccc3)nn2CC1(C)C(=O)NC1CCCCCC1 (stereo unspecified)	i
Cc1ccc(C(=O)Cn2nc3n(CC(C)C)c(=O)c4ccc(C(=O)NC5CCCC5)cc4n3c2=O)c(C)c1	i
C=CC1(C)C=C2CCC3C(C)(C)C(O[C@@H]4O[C@@H](CO)[C@H](O)[C@H]4O)CCC3(C)C2CC1O[C@@H]1O[C@H](C)[C@H](O)[C@H](O)[C@H]1O (stereo partly specified)	i
Cc1ccc(Cn2c(=O)c3ccccc3n3c(=O)n(CC(=O)Nc4ccc(Cl)cc4)nc23)cc1	i
O=C1CCC2(C(=O)NCCN3CCOCC3)CCCC=C2N1C1CCCC1 (stereo unspecified)	i
CC1CCC(NC(=O)C2(C)Cn3c(nc4ccccc43)C(=O)N2Cc2ccc(F)cc2)CC1 (stereo unspecified)	i
CC(C)OC(=O)N1CCC(COc2cnc3c(ccn3CC(N)=O)c2)CC1	i
CC1(C(=O)NC2CCCCC2)Cn2c(ccc2-c2ccco2)C(=O)N1CCCN1CCOCC1 (stereo unspecified)	i
COc1ccc(C[C@H](NC(=O)[C@@]2(O)C[C@@H](O)[C@H](O)[C@@H](NS(=O)(=O)c3cccc(C(F)(F)F)c3)C2)C(N)=O)cc1	i
CCn1nc(C)cc1S(=O)(=O)N[C@H]1[C@H]2CCO[C@H]2[C@@H]1N1CCCCC1	i

The final 4 records of the section above are carried over, then new ones follow.
SMILES	Methyltransferases
CC(C)OC(=O)N1CCC(COc2cnc3c(ccn3CC(N)=O)c2)CC1	i
CC1(C(=O)NC2CCCCC2)Cn2c(ccc2-c2ccco2)C(=O)N1CCCN1CCOCC1 (stereo unspecified)	i
COc1ccc(C[C@H](NC(=O)[C@@]2(O)C[C@@H](O)[C@H](O)[C@@H](NS(=O)(=O)c3cccc(C(F)(F)F)c3)C2)C(N)=O)cc1	i
CCn1nc(C)cc1S(=O)(=O)N[C@H]1[C@H]2CCO[C@H]2[C@@H]1N1CCCCC1	i
COCC1CN(C2CCC2)CC12CCN(S(=O)(=O)c1cnc[nH]1)CC2 (stereo unspecified)	i
Cc1ccc(NS(=O)(=O)c2ccc3[nH]c(=O)[nH]c3c2)c(Cl)c1	i
CCCN1C(=O)c2c(C(=O)NCc3ccccc3OC)ncn2CC1(C)C(=O)NC1CCCC1 (stereo unspecified)	i
CCCn1c(=O)c2ccc(C(=O)NC(C)C)cc2n2c(=O)n(Cc3ccc(N4CCCC4=O)cc3)nc12	i

High-throughput results as filed in PubChem BioAssay.

A portion of the library. The share of hits here may be higher or lower than overall.
